TDP1 inh: blocks human tyrosyl-DNA phosphodiesterase 1; recombinant TDP1, AlphaScreen DNA substrate cleavage; Potency, µM (highest dose often 130 µM), for inactives: at the highest dose activity change, negative = inhibition, most hits filed as inhibitors; hit rate 0.28% among 350,000; AID 485290; further: nearly all actives have a fitted effect of over 40% in size
Target sequence (Q9NUW8 whole entry, looked up): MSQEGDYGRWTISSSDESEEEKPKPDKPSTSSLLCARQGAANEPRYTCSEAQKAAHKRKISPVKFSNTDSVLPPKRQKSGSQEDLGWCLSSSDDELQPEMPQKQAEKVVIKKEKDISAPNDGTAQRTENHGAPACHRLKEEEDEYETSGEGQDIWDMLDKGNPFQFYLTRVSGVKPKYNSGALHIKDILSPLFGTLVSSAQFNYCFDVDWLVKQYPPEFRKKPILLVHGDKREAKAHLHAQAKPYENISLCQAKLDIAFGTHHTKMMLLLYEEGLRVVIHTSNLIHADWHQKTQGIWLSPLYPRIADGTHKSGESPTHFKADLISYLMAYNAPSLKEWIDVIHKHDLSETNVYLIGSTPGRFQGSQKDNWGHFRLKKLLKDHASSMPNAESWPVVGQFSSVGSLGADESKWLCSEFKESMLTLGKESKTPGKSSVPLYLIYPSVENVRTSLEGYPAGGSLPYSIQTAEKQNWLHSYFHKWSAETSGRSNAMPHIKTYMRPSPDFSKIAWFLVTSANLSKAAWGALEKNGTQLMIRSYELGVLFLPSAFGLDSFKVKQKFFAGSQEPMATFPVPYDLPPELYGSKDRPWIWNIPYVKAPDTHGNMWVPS
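Tdp1 1 nM final; 15 min RT w/ cpd; substrate 15 nM, 5 min; beads 10 ug/ml, 10 min; AlphaScreen read. Neg ctrl: no enzyme.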
N370S GC: inhibits or activates N370S mutant glucocerebrosidase; N370S GC spleen homogenate, 4MU-glucoside fluorescence; Potency, µM (doses to about 59.4 µM), for the others: at the top dose activity change, negative = inhibition, usual class: inhibitors; P04062; hit rate 0.092% among 330,000;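 further: 0% = full enzyme activity and -100% = no enzyme basal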
Starred values were filed as active, the others as inactive; u = inconclusive; x = no result given. The call rests on the fitted dose curve; in most records, active means well fitted curve in the direction sought with a large enough effect; inconclusive means small, poorly fitted or top-dose-only effect, or another doubt; inactive means no such curve, though single readings can be large; an effect the other way counts as inactive or inconclusive. Unless noted, on the % scale 0 is the no-effect control and ±100 the full control effect; potency means the concentration at half of the fitted maximal effect.

Screens in order: TDP1 inh, N370S GC
1	CCOC(=O)c1ccc(NC(=O)CN2C(=O)CSC2=O)cc1
  -3%, 4%
2	CCCCCC1CCC(C(=O)NCCN2CCOCC2)CC1 (stereo unspecified)
  x, u
3	NS(=O)(=O)c1ccccc1NC(=S)Nc1ccccc1S(N)(=O)=O
  x, -3%
4	CC1=C(C)CC(C(=O)NNC(=O)c2ccccc2)C(C(=O)O)C1 (stereo unspecified)
  1%, 8%
5	CC(=O)C1=NN(c2ccc(Cl)cc2)C(c2ccc3c(c2)OCO3)N(C(C)=O)N1C (stereo unspecified)
  8%, -4%
6	Cc1ccc(S(=O)(=O)N2CCN(C(=O)CCn3cncn3)CC2)cc1
  6%, 2%
7	Cc1ccc(C(=O)NCC2CCCO2)cc1S(=O)(=O)N1CCCCC1 (stereo unspecified)
  4%, 1%
8	CC(C)C(=O)NNC(=O)CC(=O)Nc1ccccc1C(=O)O
  0%, 2%
9	CC(=O)c1ccc(N2CCN(C(=O)c3cc(-c4ccc5c(c4)OCO5)nc4ccccc34)CC2)cc1
  5%, -5%
10	Cc1cccc(NC(=O)CSCC(=O)NNC(=O)c2ccoc2C)c1
  1%, -12%
11	O=C(CCc1ccccc1F)N1CCN(c2ccccc2)CC1
  x, -10%
12	CCOC(=O)C1=C(CS(=O)(=O)c2ccc(F)c(C)c2)NC(=O)NC1c1ccc(O)c(O)c1 (stereo unspecified)
  u, -11%
13	CC(=O)Nc1ccc2nc(NS(=O)(=O)c3ccc(C)cc3)sc2c1
  x, 0%
14	O=C(CCN1CCN(c2ccccc2)CC1)N/N=C/c1ccccc1OC(F)F
  -3%, 5%
15	COC(=O)CSc1nc2ccccc2c(=O)n1Cc1ccccc1
  -2%, -3%
16	Cc1ccc(S(=O)(=O)N2CCOCC2)cc1NC(=O)CSCc1c(C)noc1C
  0%, x
17	COc1cc(C2/C(=C(\O)c3ccc4c(c3)CC(C)O4)C(=O)C(=O)N2CCCn2ccnc2)ccc1O (stereo unspecified)
  -3%, -1%
18	S=c1[nH]nc(-c2c[nH]c3ccccc23)o1
  x, 1%
19	CC(=O)N(c1ccc(C)cc1)c1nc(C)cc(C)c1C#N
  8%, 0%
20	COc1ccc(-n2c(NN)nc3sc4c(c3c2=O)CCCC4)cc1
  8%, 4%
21	COc1ccccc1NC(=O)Nc1ccc(F)c(F)c1
  -3%, -2%
22	Cc1cc(C(=O)N/N=C/c2cc(Br)ccc2OC(=O)c2ccccc2)n[nH]1
  -8%, -4%
23	O=C1NC(=O)C(Cc2cccc(Oc3ccccc3)c2)S1 (stereo unspecified)
  x, -8%
24	COc1cc(C(=O)NCc2ccc(C)cc2)ccc1OC(F)F
  -4%, 5%
25	Cc1cc(C(=O)NCc2ccc3c(c2)OCO3)c(C)o1
  5%, 6%
26	FC(F)Oc1ccc(C2N=C(c3ccccc3)NO2)cc1 (stereo unspecified)
  -4%, -6%
27	Cc1ccc(S(=O)(=O)CCSc2cccc(C(=O)Nc3ccccc3C(=O)O)c2)cc1
  6%, 9%
28	O=C(NCc1ccc2c(c1)OCO2)C1CCN(Cc2cnn(-c3ccccc3)c2-n2cccc2)CC1
  -1%, 3%

Reprinted, compounds 27–28
Screens in order: TDP1 inh, N370S GC
27	Cc1ccc(S(=O)(=O)CCSc2cccc(C(=O)Nc3ccccc3C(=O)O)c2)cc1
  6%, 9%
28	O=C(NCc1ccc2c(c1)OCO2)C1CCN(Cc2cnn(-c3ccccc3)c2-n2cccc2)CC1
  -1%, 3%

12 entries from above, bar-delimited:
nr | mol | TDP1 inh | N370S GC
1 | CCOC(=O)c1ccc(NC(=O)CN2C(=O)CSC2=O)cc1 | -3% | 4%
2 | CCCCCC1CCC(C(=O)NCCN2CCOCC2)CC1 (stereo unspecified) | x | u
3 | NS(=O)(=O)c1ccccc1NC(=S)Nc1ccccc1S(N)(=O)=O | x | -3%
4 | CC1=C(C)CC(C(=O)NNC(=O)c2ccccc2)C(C(=O)O)C1 (stereo unspecified) | 1% | 8%
5 | CC(=O)C1=NN(c2ccc(Cl)cc2)C(c2ccc3c(c2)OCO3)N(C(C)=O)N1C (stereo unspecified) | 8% | -4%
6 | Cc1ccc(S(=O)(=O)N2CCN(C(=O)CCn3cncn3)CC2)cc1 | 6% | 2%
7 | Cc1ccc(C(=O)NCC2CCCO2)cc1S(=O)(=O)N1CCCCC1 (stereo unspecified) | 4% | 1%
8 | CC(C)C(=O)NNC(=O)CC(=O)Nc1ccccc1C(=O)O | 0% | 2%
9 | CC(=O)c1ccc(N2CCN(C(=O)c3cc(-c4ccc5c(c4)OCO5)nc4ccccc34)CC2)cc1 | 5% | -5%
10 | Cc1cccc(NC(=O)CSCC(=O)NNC(=O)c2ccoc2C)c1 | 1% | -12%
11 | O=C(CCc1ccccc1F)N1CCN(c2ccccc2)CC1 | x | -10%
12 | CCOC(=O)C1=C(CS(=O)(=O)c2ccc(F)c(C)c2)NC(=O)NC1c1ccc(O)c(O)c1 (stereo unspecified) | u | -11%

Screening data from PubChem BioAssay.

A portion of the library, and most or all hits are left out here.
